High-throughput results from PubChem BioAssay.
CBX7 inh: blocks human CBX7 binding to H3K27me3 peptide | normalised signal (fraction of DMSO) (test concentration not listed) | AlphaScreen His6-CBX7 / biotin-H3K27me3 peptide binding; stronger effect = lower value | O95931 | 66,000 compounds, 1.1% hits; in the data active = normalised signal below about 0.5;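 note: 100 nL library stock added to about 20 µL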
Target sequence (O95931 whole entry, looked up): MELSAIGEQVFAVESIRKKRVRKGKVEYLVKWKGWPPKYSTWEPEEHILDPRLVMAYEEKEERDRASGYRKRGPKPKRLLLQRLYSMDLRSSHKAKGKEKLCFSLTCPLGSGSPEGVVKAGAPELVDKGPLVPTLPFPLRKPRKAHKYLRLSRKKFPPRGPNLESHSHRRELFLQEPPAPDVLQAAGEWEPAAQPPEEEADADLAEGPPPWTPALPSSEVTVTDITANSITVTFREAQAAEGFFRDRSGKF
CBX7 inh z-score: recorded beside CBX7 inh, whose call it bears; z-score; measured here: z-score of CBX7 signal; some inactives read as strong as hits; reference of the scale not given here;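 same signal on another scale; lower means less binding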
* = called active by the depositor.

Every second line gives: CBX7 inh	CBX7 inh z-score
> Clc1ccc(-c2csc(Nc3ccc4ccccc4c3)n2)cc1Cl
  0.59	-6.5
> Cc1cccc(Nc2nnc(-c3ccc(C)c(S(N)(=O)=O)c3)c3ccccc23)c1
  0.97	-1.1
> CCOc1ccc(C(=O)Nc2cc(-c3nc4cc(Cl)ccc4o3)ccc2C)cc1
  0.82	-0.71
> Cc1csc2nc(CCN3C(=O)c4ccccc4C3=O)cn12
  1.1	0.9
> Cc1ccc(NC(=O)CSc2nc3ncccc3[nH]2)cc1
  0.95	-2.4
> Cc1ccc(S(=O)(=O)NC(C)C(c2cccs2)N2CCN(C)CC2)cc1 (configuration not stated)
  1	0.45
> Cc1nc2c(C(=O)O)c[nH]n2c(=O)c1Cc1cccc(Cl)c1
  1.1	1.9
> CC1CCCCN1S(=O)(=O)c1ccc(C(=O)Nc2ccc(-c3nc4ccccc4[nH]3)cc2)cc1 (configuration not stated)
  1	1.1
> CC1CCC(NC(=O)C2CCCN(c3nnc(-n4cccc4)s3)C2)CC1 (configuration not stated)
  0.92	-1.8
> CC1CCCC(NC(=O)CN2C(=O)CSc3ccc(S(=O)(=O)N4CCOCC4)cc32)C1C (configuration not stated)
  1.1	1.2
> O=C(NC1CCCCC1)C1CCN(S(=O)(=O)c2cccc3cccnc23)CC1
  1.1	1.5
> Cc1ccc(NC2c3ncccc3C(=O)N2Cc2ccc(F)cc2)cc1 (configuration not stated)
  0.44*	-7.2*
> COc1ccc(-n2nnc3c(=O)n(CC(=O)NCc4ccc(F)cc4)cnc32)cc1
  0.93	-1.4
> COc1cccc(CNC(=O)CCn2nc(-c3ccc(C)cc3)ccc2=O)c1
  1	0.68
> O=C(NCc1ccc(F)cc1)C1CCN(c2nc3ccccc3o2)CC1
  1.1	0.064

More structures follow.
Every second line gives: CBX7 inh	CBX7 inh z-score
> CC(C)Cn1cc(C(=O)NCC2COc3ccccc3O2)c2c3ccccc3n(C)c2c1=O (configuration not stated)
  0.99	-0.37
> CCN1CCCC1CNC(=O)CN1CCN(Cc2ccc(C)cc2)C1=O (configuration not stated)
  1.1	1.4
> O=C(CN1C(=O)COc2ccc(S(=O)(=O)N3CCCCCC3)cc21)NCc1ccccn1
  0.91	-3
> Cc1nccc2[nH]c(=O)c(C(=O)NCCCN(C)C3CCCCC3)cc12
  0.95	-0.92
> Cc1nc2cc(NC(=O)c3ccc(S(=O)(=O)N4CCC(C)CC4)cc3)ccc2s1
  0.95	-1.2
> COC(CNC(=O)c1c[nH]c2ccc(S(=O)(=O)Nc3ccc(C)cc3C)cc2c1=O)OC
  0.95	-0.91
> COc1ccc(OC)c(NC(=O)CNC(=O)c2cn(-c3ccccc3OC)c(=O)c3ccccc23)c1
  1	0.54
> CCC1CCCCN1S(=O)(=O)c1ccc2c(c1)CCN2C(C)=O (configuration not stated)
  1.1	1.2
> O=c1[nH]c2ccc(S(=O)(=O)N3CCC(Cc4ccccc4)CC3)cc2[nH]1
  1.2	2.3
> CCCOc1ccc(C(O)(CCN2CCCCC2)c2ccccc2)cc1 (configuration not stated)
  1	0.84
> O=C(O)c1ccccc1C(=O)n1c(-c2cccc(Br)c2)nc2ccccc21
  0.84	-1.7
> COc1ccc(/C=C/c2nc3ccccc3c(=O)n2-c2cccc(C(F)(F)F)c2)cc1
  1	0.97
> C=CCn1c(=O)c(C(=O)Nc2ccc(OCC)cc2)c(O)c2ccccc21
  1.1	1.5
> CCOc1ccc(NC(=O)C2CCN(S(=O)(=O)c3cnc[nH]3)CC2)cc1
  1	0.29
> CCc1ccc(-n2c(CC)nc3c(cnn3-c3ccc(C)c(C)c3)c2=O)cc1
  0.9	-1.3

Arranged by length of the SMILES (high to low): some entries from above
Every second line gives: CBX7 inh	CBX7 inh z-score
> COc1ccc(/C=C/c2nc3ccccc3c(=O)n2-c2cccc(C(F)(F)F)c2)cc1
  1	0.97
> Cc1nc2cc(NC(=O)c3ccc(S(=O)(=O)N4CCC(C)CC4)cc3)ccc2s1
  0.95	-1.2
> CCC1CCCCN1S(=O)(=O)c1ccc2c(c1)CCN2C(C)=O (configuration not stated)
  1.1	1.2

In another format: entries from further up
SMILES,CBX7 inh,CBX7 inh z-score
O=C(CN1C(=O)COc2ccc(S(=O)(=O)N3CCCCCC3)cc21)NCc1ccccn1,0.91,-3
Cc1nccc2[nH]c(=O)c(C(=O)NCCCN(C)C3CCCCC3)cc12,0.95,-0.92
Cc1nc2cc(NC(=O)c3ccc(S(=O)(=O)N4CCC(C)CC4)cc3)ccc2s1,0.95,-1.2
COC(CNC(=O)c1c[nH]c2ccc(S(=O)(=O)Nc3ccc(C)cc3C)cc2c1=O)OC,0.95,-0.91
COc1ccc(OC)c(NC(=O)CNC(=O)c2cn(-c3ccccc3OC)c(=O)c3ccccc23)c1,1,0.54
CCC1CCCCN1S(=O)(=O)c1ccc2c(c1)CCN2C(C)=O (configuration not stated),1.1,1.2
O=c1[nH]c2ccc(S(=O)(=O)N3CCC(Cc4ccccc4)CC3)cc2[nH]1,1.2,2.3

More results.
Every second line gives: CBX7 inh	CBX7 inh z-score
> Cc1cc2nc(Cc3c(F)cccc3Cl)c(=O)[nH]c2cc1C
  1.2	4.9
> O=C(C1CCN(S(=O)(=O)c2cccnc2)CC1)N1CCN(c2cccc(Cl)c2)CC1
  1	0.45
> COc1ccc(-n2nc3c(c2NC(=O)c2ccccc2C)CS(=O)(=O)C3)cc1
  0.97	-0.5
> Cc1ccc(O)c(-c2cc(-c3ccccc3Cl)[nH]n2)c1
  0.71	-8.3
> COc1ccc(-c2noc(CCC(=O)O)n2)cc1
  1	0.6
> Cc1ccc(Cn2c(=N)n(CC(O)c3ccc(Cl)c(Cl)c3)c3ccccc32)cc1 (configuration not stated)
  0.78	-6.2
> CC(C)(C)c1ccc(-c2nc(-c3ccc(Br)cc3)no2)cc1
  1.2	3.7
> CCS(=O)(=O)c1ccc(O)c(NC(=O)COc2ccc(Cl)c(C)c2)c1
  0.99	-0.46
> CC1CCN(Cc2cc(Cl)c3cccnc3c2O)CC1
  0*	-35*
> O=C(COc1nsnc1N1CCOCC1)Nc1ccccc1
  1.2	1.4
> COc1ccc(NC(=O)CNC(=O)Cn2cnc3sc(C)cc3c2=O)c(OC)c1
  0.96	-0.26
> CC(C)(C)OC(=O)N1CCC(c2c(C(=O)Nc3ccc(Cl)cc3)cnn2-c2ccccc2)CC1
  0.85	-3.8
> Cc1ccccc1-c1noc(-c2cc(-c3ccncc3)nc3ccccc23)n1
  0.75	-0.25
> Cc1ccc(S(=O)(=O)c2nc(-c3ccc(Cl)cc3)oc2N2CCCCC2)cc1
  0.81	-6.6
> Cc1c(C(=O)Nc2ccccc2F)sc2ncn(CC(=O)N3CCOCC3)c(=O)c12
  1.1	0.4

Next part:
Every second line gives: CBX7 inh	CBX7 inh z-score
> Cc1ccccc1C1NC(c2ccccc2C)C(C)C(=O)C1C (configuration not stated)
  1.1	1.3
> Cn1c(=O)c(=O)n(C)c2cc(S(=O)(=O)N3CCCC3C(=O)NCc3cccs3)ccc21 (configuration not stated)
  1.2	1.9
> Cc1ccc2c(c1)-c1c(cnn1CC(=O)N(C)c1cc(C)ccc1C)CO2
  1	0.76
> CCCOc1ccccc1C1CC(=O)Nc2c1ccc(C)c2C (configuration not stated)
  0.98	-0.25
> CCN1C(=O)c2ccccc2S(=O)c2ccc(C(=O)N3CCC(Cc4ccccc4)CC3)cc21 (configuration not stated)
  0.92	-2
> CCCCN(C)CCCNC(=O)c1cc(-c2cccnc2)nc2ccccc12
  1.1	2
> O=C(c1ccccc1)c1cn(Cc2ccc(Cl)cc2)c2cc3c(cc2c1=O)OCCO3
  0.65	-1.3
> COc1ccc(C2C(=O)N(CCc3ccccc3)CC(=O)N2CCC2=CCCCC2)cc1 (configuration not stated)
  0.75	-1
> COC(CNC(=O)C1CCN(Cc2nc(-c3ccccc3F)oc2C)CC1)OC
  1.1	0.95
> COc1ccc(-c2cc(C(=O)NCc3ccc(F)cc3)no2)cc1
  1.1	1.9
> Cc1ccc(-c2ccc(=O)n(CCC(=O)NCCN(CC(C)C)CC(C)C)n2)cc1
  0.96	-0.087
> CCOc1cccc(-c2nnc(-c3ccc4c(c3)OCO4)o2)c1
  1	1.1
> COc1ccc(S(=O)(=O)NCCSc2nc3ccccc3s2)cc1OC
  0.78	-0.89
> COc1ccc(-n2nc(C(=O)NCC(=O)Nc3ccc(F)cc3)c3ccccc3c2=O)cc1
  0.95	-0.047
> O=C1C(Oc2ccc(Cl)cc2)C(c2ccc3c(c2)OCO3)N1c1cccc(Cl)c1 (configuration not stated)
  1	0.4

The results go on:
Every second line gives: CBX7 inh	CBX7 inh z-score
> COc1ccc(CCN2C(=O)CN(C3CCCCCC3)C(=O)C2c2ccc(Cl)cc2)cc1OC (configuration not stated)
  0.94	-2.3
> CCc1ccc(-n2cnc3cc(C(=O)NC4CCCC4)ccc32)cc1
  0.81	-3.4
> COc1ccc(OC)c(Nc2cc(C(=O)NC(C)c3ccc4c(c3)OCCO4)c3ccccc3n2)c1 (configuration not stated)
  0.88	-5.1
> CCc1nnc(NS(=O)(=O)c2ccc(NC(=O)c3cccc(Cl)c3)cc2)s1
  0.99	-0.24
> O=C(NCc1ccc2c(c1)OCO2)C1c2ccccc2C(=O)N2CCc3ccccc3C12 (configuration not stated)
  0.84	-2.5
> CCOC(=O)c1cnc2ccc(OCC)cc2c1Nc1ccc(OCc2ccccc2Cl)cc1
  0.91	-2.4
> CCOC(=O)c1c(NC(=O)c2cccc(Cl)c2)sc(C)c1C
  1.3	6.6
> CC1CCCC(NC(=O)c2csc3c2CCCC3)C1C (configuration not stated)
  1.1	2.5
> COCCCNC(=O)CN1CCN(Cc2ccc(F)cc2Cl)C1=O
  0.76	-3.4
> O=C(Cc1cn(Cc2cccc(Cl)c2)c2ccccc12)Nc1ccc(F)cc1F
  1.1	2.8
> Cc1nc2cc(-c3cccc(F)c3)nn2c(C)c1CCC(=O)Nc1ccccc1Cl
  1.1	1.2
> c1ccc(Oc2ccc(Nc3nc(-c4ccc5ccccc5c4)cs3)cc2)cc1
  0.58	-15
> COc1ccccc1CNC(=O)CC1Nc2ccccc2NC1=O (configuration not stated)
  1	1.3
> Fc1ccc(-c2nnc3ccc(NCc4ccccc4Cl)nn23)cc1
  1	0.7
> Cc1cc(C)cc(-c2nc(-c3ccccc3)no2)c1
  1.3	7.9

(further entries)
Every second line gives: CBX7 inh	CBX7 inh z-score
> Clc1ccc(-c2nnc(-c3ccc(Br)cc3)o2)c(Cl)c1
  1	0.39
> CCOCCCNC(=O)c1ccc2c(c1)nc(C)n2-c1ccc(F)c(F)c1
  1	0.14
> COc1ccc(Cc2nnc(NC(=O)Cc3ccc(F)cc3)s2)cc1OC
  0.99	-0.0084
> Cc1ccc2cc(CCNC(=O)c3ccc4ccccc4c3)c(=O)[nH]c2c1C
  1	0.81
> COc1ccccc1CNC(=O)c1cc(Nc2ccc(C)cc2C)nc2ccccc12
  1.1	1.5
> Cc1ccc(NC(=O)CCc2c(C)nc3cc(-c4cccc(F)c4)nn3c2C)cc1
  1	0.16
> COc1ccc(C(NC(=O)CNC(C)=O)C(=O)Nc2ccc3c(c2)OCO3)cc1 (configuration not stated)
  0.91	-0.95
> CCOc1ccc(CN2C(=O)c3ccccc3C2C(=O)NC2CCCCCCC2)cc1 (configuration not stated)
  0.94	-1.2
> Cc1ccc(NS(=O)(=O)c2ccc3c(c2)n(C)c(=O)c(=O)n3C)cc1F
  0.84	-2.4
> CC1CCN(CCCNC(=O)c2cc(=O)[nH]c3ccc(S(=O)(=O)N4CCCC4)cc23)CC1
  0.97	-0.89
> COc1ccc(-c2nc(Nc3ccc(C)c(C)c3)c3ccccc3n2)cc1OC
  1.2	5.5
> CCn1c(Cc2c(C)[nH]c3ccccc23)nnc1SCC(=O)Nc1ccc(C(C)=O)cc1
  0.98	-0.52
> CCOC(=O)c1[nH]c(=O)[nH]c1CSC1=NC(=O)C(CC)C(=O)N1 (configuration not stated)
  0.54	-7.7
> CCn1cc(C(=O)NCCOC)c2cc(OC)c(OC)cc2c1=O
  1	0.42
> Cc1ccc(NC(=O)CCc2nnc3ccc(NCc4ccc(Cl)cc4)nn23)cc1C
  1.1	1.3

(more compounds)
Every second line gives: CBX7 inh	CBX7 inh z-score
> COC(=O)c1ccc2c(c1)N=C(C)c1cc(C)ccc1S2
  1.1	3
> O=C(CSc1nccn1-c1ccccc1)Nc1ccccc1
  0.77	-5
> c1cnc2sc(N3CCC4(CC3)OCCO4)nc2c1
  1	0.66
> CCOCCCNC(=O)C1CCN(Cc2nc(-c3cccc(Cl)c3)oc2C)CC1
  1.3	2.2
> Cc1onc(-c2ccccc2Cl)c1C(=O)Nc1cccc(Br)c1
  0.99	-0.057
> COc1cccc(OCCn2c(C(F)(F)F)nc3ccccc32)c1
  1.1	1.4
> Cc1ccc(Cl)cc1NC(=O)C(Cc1ccccc1)N1C(=O)c2ccccc2C1=O (configuration not stated)
  1.2	0.52
> CCCOc1ccc(C2C(=O)N(C3CCC(C)CC3)CC(=O)N2CCc2ccccc2)cc1OC (configuration not stated)
  0.96	-0.052
> COc1ccc(-n2ccnc2SCC(=O)Nc2cccc(C)c2)cc1
  0.61	-0.51
> CC1CCCCC1NC(=O)CN(C)S(=O)(=O)c1cccc2cccnc12 (configuration not stated)
  0.98	-0.45
> CCc1ccc(NCc2nc(-c3ccccc3)no2)cc1
  1	-0.012
> CN1C2CCC1CC(N(CCc1c[nH]c3ccccc13)C(=O)c1ccc(F)cc1)C2 (configuration not stated)
  1	0.054
> COc1ccc(-c2cc(C(=O)Nc3ccc(OC(F)(F)F)cc3)no2)cc1
  1	0.98
> CCc1nnc(NC(=O)CSc2nccn2C)s1
  0.76	-0.95
> CCOC(=O)N1CCN(c2c(N3CCN(c4ccccc4)CC3)c(=O)c2=O)CC1
  1	1.3

(listing goes on)
Every second line gives: CBX7 inh	CBX7 inh z-score
> CCC(=O)N1CCc2cc(S(=O)(=O)CCC(=O)N(CC)c3ccccc3)ccc21
  1	-0.043
> COc1ccc(OC)c(Nc2nc(-c3cccc(NC(=O)c4ccccc4)c3)cs2)c1
  0.81	-2.4
> O=C1CCCc2c1cc(C(=O)Nc1ccccc1)c(=O)n2-c1ccccc1
  0.92	-0.88
> CCOc1ccc(NC(=O)CC2C(=O)N(c3ccc(OC)cc3)C(=O)N2C(C)C)cc1 (configuration not stated)
  1	0.13

Some of the compounds tested; the hit share may differ from the screen's.
